Rango complex inh: Rango-importin beta binding inhibition | AID 540263 | Potency, µM (doses to about 92.2 µM), without a hit: at the top dose inhibition of complex formation | Rango CFP/YFP FRET sensor + importin beta, 45 min | 340,000 tested, 0.031% active | Q14974; active = rising FRET ratio curve, often small or poorly fitted; inconclusive = mostly compound fluorescence or quenching in the first reads; inactive = flat curves in all reads;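 note: potency is the fitted concentration of half-maximal effect; 0% = DMSO wells and 100% = buffer wells lacking importin beta; nearly all actives have a fitted effect of over 15% in size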
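FRET biosensor (snurportin 1 IBB flanked by EYFP and cerulean), 50 nM, with compound 5 min, then 0.125 microM importin beta in PBS, 1 mM DTT, 0.02% Tween-20, 0.1% BSA. CFP/YFP ratio read after 45 min at room temperature; pre-read flags interference.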
miR-21 FLuc: miR-21 reporter, rising signal; HeLa miR-21 FLuc reporter, luciferase, 48 h; 340,000 tested, under 10 active; Potency, µM (doses to about 38.3 µM), for inactives: top-dose reporter change, positive = more light; AID 2288; active = well fitted rising curve with a large enough effect; inconclusive = small, poorly fitted or top-dose-only effect; inactive = no such curve, though single readings can be large or run the other way;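 note: % of control where 0% means no effect; miR-21 action dims this reporter so a rising signal means less miR-21 action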
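HeLa miR-21-FLuc reporter line, endogenous miR-21; 2000 cells/well in DMEM/10% FBS; compound titration up to ~40uM final, 48 h, 37 degree Celsius; luciferase detection reagent, 15 min lysis, CCD luminescence.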
GLA inh pH 4.5: alpha-galactosidase A (human) inhibition, pH 4.5 | P06280 | purified enzyme, 4-MU-alpha-Gal fluorescence, pH 4.5 | AID 1467 | 230,000 tested, under 10 active | activity change, negative = inhibition, % at 105 µM; inconclusive = small, poorly fitted or top-dose-only inhibition, or a rising curve; inactive = flat fitted curve, though single readings scatter; no compound was filed as active;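 note: 0% = full activity with enzyme and -100% = basal without enzyme; dose as in the result columns while the protocol names 77 µM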
Target sequence (P06280 whole entry, looked up): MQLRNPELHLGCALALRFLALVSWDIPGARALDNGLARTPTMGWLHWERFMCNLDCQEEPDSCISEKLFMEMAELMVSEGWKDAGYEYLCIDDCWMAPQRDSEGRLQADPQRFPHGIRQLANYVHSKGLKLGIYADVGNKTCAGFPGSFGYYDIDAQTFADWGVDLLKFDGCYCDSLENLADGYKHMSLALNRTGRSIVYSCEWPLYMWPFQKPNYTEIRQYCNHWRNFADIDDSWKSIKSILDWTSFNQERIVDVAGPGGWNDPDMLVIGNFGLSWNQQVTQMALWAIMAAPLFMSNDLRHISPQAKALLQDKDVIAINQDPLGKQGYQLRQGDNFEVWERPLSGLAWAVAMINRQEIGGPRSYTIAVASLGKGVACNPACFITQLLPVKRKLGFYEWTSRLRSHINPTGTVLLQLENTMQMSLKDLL
Rango release inh: inhibitors of RanGTP-induced Rango-importin beta complex dissociation. Potency, µM (highest dose often 46.1 µM), inactives show at the top dose activity change, negative = inhibition. 340,000 tested, 0.071% active. Biochemical FRET Rango-importin beta, RanGTP-induced dissociation. AID 540253; active means falling FRET ratio curve, often poorly fitted, with flat reads before Ran was added; inconclusive means other falling curves, or compound fluorescence or quenching; inactive means flat or rising ratio curve;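 note: potency is the fitted concentration of half-maximal effect; % of control where 0% means no effect; nearly all actives have a fitted effect of over 45% in size; -100% = wells without RanGTP and RCC1; the record marks most hits as doubtful in a second field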
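Rango FRET biosensor (snurportin-1 IBB flanked by N-terminal EYFP and C-terminal CFP10) at 0.1 uM, with 0.25 uM importin beta in PBS, 1mM DTT, 0.02% Tween-20, 0.1% BSA. 0.6 uM Ran, 2mM GTP and 0.2 uM RCC1 were then added for 45 min at room temperature. Inhibition read as loss of FRET rise.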
* = called active by the depositor; ? = inconclusive; . = not tested or not shown; & = joins results of further samples; [ ] = dose if it differs, or a comment.

The opening seven records (preview)
item	smiles	Rango complex inh	miR-21 FLuc	GLA inh pH 4.5	Rango release inh
1	Cn1c2c(c(=O)n(C)c1=O)C(c1cc3c(cc1Br)OCO3)CC(=O)N2 (stereo not drawn)	-2.6%	-2%	4	-17%
2	O=C(COc1ccc(Cl)cc1)NCc1nnc(SCC(=O)Nc2ccc3c(c2)OCCO3)o1	2.6%	-8%	-24	0%
3	Cc1ccc(-n2c(CNc3ccc(F)cc3)nnc2SCC(=O)O)cc1	0.2%	2%	3	-5%
4	Cc1cccc(C)c1Nc1nnc(SCC(=O)NCc2ccco2)s1	1.5%	2%	3	11%
5	CCCNC(=O)c1[nH]c(C)c(C(=O)OCC)c1C	.	-16%	5	.
6	CN(CC(=O)NC1(C)CCS(=O)(=O)C1)S(=O)(=O)c1ccc(Cl)cc1 (stereo not drawn)	1.5%	.	.	2%
7	CC(C)=C(NC(=O)c1ccccc1)C(=O)Nc1cccc(C(=O)O)c1	4.9%	-3%	-11	16%

Main list (from the top)
item	smiles	Rango complex inh	miR-21 FLuc	GLA inh pH 4.5	Rango release inh
1	Cn1c2c(c(=O)n(C)c1=O)C(c1cc3c(cc1Br)OCO3)CC(=O)N2 (stereo not drawn)	-2.6%	-2%	4	-17%
2	O=C(COc1ccc(Cl)cc1)NCc1nnc(SCC(=O)Nc2ccc3c(c2)OCCO3)o1	2.6%	-8%	-24	0%
3	Cc1ccc(-n2c(CNc3ccc(F)cc3)nnc2SCC(=O)O)cc1	0.2%	2%	3	-5%
4	Cc1cccc(C)c1Nc1nnc(SCC(=O)NCc2ccco2)s1	1.5%	2%	3	11%
5	CCCNC(=O)c1[nH]c(C)c(C(=O)OCC)c1C	.	-16%	5	.
6	CN(CC(=O)NC1(C)CCS(=O)(=O)C1)S(=O)(=O)c1ccc(Cl)cc1 (stereo not drawn)	1.5%	.	.	2%
7	CC(C)=C(NC(=O)c1ccccc1)C(=O)Nc1cccc(C(=O)O)c1	4.9%	-3%	-11	16%
8	Cc1cccc2cc(CN(CCN3CCOCC3)C(=O)NCc3ccccc3)c(=O)[nH]c12	0.3%	-4%	1	-5%
9	O=C(O)c1ccc2c(c1)C(=O)N(CCC1=CCCCC1)C2=O	5.4%	-9%	8	11%
10	Cc1ccccc1NC(=O)Nc1cc(-c2ccccc2)nn1C	-2.5%	-27%	0	10%
11	O=Cc1ccc(Cl)c(Cl)c1	?	.	.	-22%
12	COc1ccc(NC(=O)c2ccccc2F)cc1Cl	-3.6%	-56%	2	2%
13	CCOC(=O)C1CCN(CC(O)COc2ccc(S(=O)(=O)N3CCCC3)cc2[N+](=O)[O-])CC1 (stereo not drawn)	-1.4%	.	.	2%
14	COc1ccc(S(=O)(=O)CCC(=O)NCCc2ccc(S(N)(=O)=O)cc2)cc1	-0.2%	-4%	-2	-17%
15	COc1ccc(Cl)cc1Nc1nc(-c2cccnc2)cs1	-6.7%	-8%	.	-1%
16	COc1cccc(CN2C(=O)C(C)N(C(=O)c3c(F)cccc3F)c3ccccc32)c1 (stereo not drawn)	4.7%	?	.	-5%
17	COc1cccc(CCC(=O)Nc2cccc(S(=O)(=O)N3CCCC3)c2)c1OC	0.6%	.	.	7%
18	CCN(CC)CCNC(=O)c1ccc(N)cc1	-0.4%	-8%	-24&-10&-2	-18%
19	O=S1(=O)C[C@@H](O)[C@@H](Nc2ccccc2)C1	-1.2%	1%	-6	23%
20	Cc1oc(C(C)(C)C)cc1C(=O)N1CCCC1C(=O)O (stereo not drawn)	1.0%	-7%	-8	-2%
21	CC1(C)Cc2ccccc2C(=NC(Cc2ccccc2)C(=O)O)N1 (stereo not drawn)	0.9%	1%	.	10%
22	CC(OC(=O)c1ccccc1NS(=O)(=O)c1cccc(N)c1)C(=O)N(C)Cc1ccccc1 (stereo not drawn)	0.8%	1%	10	0%
23	CC(C)N(C(=O)Cn1cc(SCC(=O)NCc2ccco2)c2ccccc21)C(C)C	-3.1%	8%	-1[21.1 µM]	10%
24	COc1ccccc1N(CC(=O)NC(C)(C)C)C(=O)c1ccc(Cl)nc1	2.0%	0%	7	12%
25	COCCCn1c(C(=O)NCCC2=CCCCC2)cc2c(=O)n3ccccc3nc21	?	-2%	.	-4%

Only Rango release inh, Rango complex inh and miR-21 FLuc, for 3 of the compounds above:
no. | SMILES | Rango release inh | Rango complex inh | miR-21 FLuc
7 | CC(C)=C(NC(=O)c1ccccc1)C(=O)Nc1cccc(C(=O)O)c1 | 16% | 4.9% | -3%
8 | Cc1cccc2cc(CN(CCN3CCOCC3)C(=O)NCc3ccccc3)c(=O)[nH]c12 | -5% | 0.3% | -4%
9 | O=C(O)c1ccc2c(c1)C(=O)N(CCC1=CCCCC1)C2=O | 11% | 5.4% | -9%

Following part:
item	smiles	Rango complex inh	miR-21 FLuc	GLA inh pH 4.5	Rango release inh
26	COc1ccc(S(=O)(=O)Nc2cccc(-n3cnnn3)c2)cc1	5.3%	2%	.	-12%
27	Cc1cc(NC(=O)c2cnn3c(C(F)(F)F)cc(-c4ccccc4)nc23)no1	0.0%	-7%	-5	-6%
28	O=C(O)C1CCCCC1C(=O)NCCc1ccc(F)cc1 (stereo not drawn)	-2.7%	6%	0	0%
29	CNC(=O)CSc1nnc(-c2cccc(S(=O)(=O)N3CCOCC3)c2)n1-c1ccc(F)cc1	-0.2%	-9%	8	8%
30	O=C(/C=C/c1ccc2c(c1)OCO2)N1CCOCC1	-1.6%	-26%	?	9%
31	Cc1cnc(=O)[nH]c1SCC(=O)Nc1nccs1	-2.3%	.	.	1%
32	c1csc(CNc2ncnc3nc[nH]c23)c1	-5.7%	-19%	8	7%
33	O=[N+]([O-])c1nn(-c2ccccc2)n(O)c1=NCc1ccc2c(c1)OCO2	-2.9%	-19%	-2	2%
34	O=C(c1ccc2nccnc2c1)N1CCN(Cc2ccc3c(c2)OCO3)CC1	1.9%	1%	-2	1%
35	CC(=O)Nc1ccc(NC(=O)C(C)OC(=O)CCCOc2ccc(Cl)c(C)c2)cc1 (stereo not drawn)	2.2%	0%	.	-9%
36	COc1cccc(NC(=O)COc2ccc3c(c2)CCC3)c1	4.9%	-40%	-23	19%
37	CCOC(=O)C1=NN(C(C)=O)C2(CC(=O)N(c3cc(C)cc(C)c3)C2=O)C1 (stereo not drawn)	-2.9%	2%	3	-2%
38	CC(C)COP(=O)(OCC(C)C)C(O)c1ccccc1F (stereo not drawn)	0.0%	3%	6	11%
39	C=CCn1cc(/C=C2/NC(=O)NC2=O)c2ccccc21	-1.5%	-13%	-24	-20%
40	COC(=O)c1cc2oc3ccccc3c2n1CC(=O)Nc1ccccc1OC	4.8%	-4%	1	-13%
41	CCN(CCO)c1ccc(N=Nc2cc(C)[nH]n2)cc1	0.0%	28%	-9	0%
42	CCN(CC)CCCN(C(=O)c1ccccc1C)c1nc(-c2ccc(OC)cc2)cs1	4.4%	7%	.	?
43	Cc1ccc(SCC(=O)Nc2ccc(N3CCN(c4ccccc4)CC3)c(F)c2)cc1	0.3%	1%	1	-7%
44	O=C(O)/C=C/C(=O)Nc1ccc(OCc2ccccc2)cc1	-1.1%	-18%	-1	-2%
45	Cc1ccc(NS(=O)(=O)c2cc(C(=O)NCCSc3ccc(C)cc3)ccc2C)cc1	3.5%	21%	-6	3%
46	NC(=O)C1(N2CCCC2)CCN(Cc2ccccc2)CC1	0.2%	.	.	-7%
47	O=C(Nc1nc(=O)c2ccccc2s1)c1ccccc1	-0.8%	-42%	1	1%
48	CC(=O)N1CN(C2CCS(=O)(=O)C2)Cc2c1sc1c2CCCC1 (stereo not drawn)	-0.1%	-4%	4	4%
49	CCC(=O)c1ccc(OCC(=O)OCC(=O)N2c3ccccc3CC2C)cc1 (stereo not drawn)	0.6%	.	.	8%
50	N#Cc1nc(/C=C/c2ccccc2)oc1NCCCN1CCOCC1	?	-60%	?	?

In another format: results already given
Results follow in this order: Rango complex inh, miR-21 FLuc, GLA inh pH 4.5, Rango release inh
#50 N#Cc1nc(/C=C/c2ccccc2)oc1NCCCN1CCOCC1
    ?, -60%, ?, ?
#29 CNC(=O)CSc1nnc(-c2cccc(S(=O)(=O)N3CCOCC3)c2)n1-c1ccc(F)cc1
    -0.2%, -9%, 8, 8%

Continued.
item	smiles	Rango complex inh	miR-21 FLuc	GLA inh pH 4.5	Rango release inh
51	CC[C@@]1(C(=O)OC)N[C@H](CN(C)C(=O)Nc2ccc(F)cc2)[C@@H]2C(=O)N(C)C(=O)[C@@H]21	0.6%	.	.	5%
52	CC(C)CC(=O)Nc1nc(=S)ss1	-1.1%	-4%	7	9%
53	COc1ccc(-c2nc3ccccc3c(=O)n2CCc2ccc(O)cc2)cc1	-1.5%	0%	.	-3%
54	CCOC(=O)N/N=C(\C)c1ccc(OC(F)F)cc1OC(F)F	0.5%	-15%	1	3%
55	O=S(=O)(c1ccccc1)N1CCN(Cc2cccc(Br)c2)CC1	0.4%	.	.	0%
56	Cc1ccc(-n2c(C)cc(C=C3C(=O)CC(C)(C)CC3=O)c2C)cc1	1.7%	-4%	-7	23%
57	COc1ccc(N=CC2=C(O)CC(c3ccccc3)CC2=O)c(OC)c1 (stereo not drawn)	?	19%	1	?
58	O=C(Nc1ccc(N2CCN(C(=O)c3ccco3)CC2)cc1)c1ccccc1	-5.7%	-35%	8	9%
59	CC(=O)Nc1cccc(NC(=O)C2C3C=CC(C3)C2C(=O)O)c1 (stereo not drawn)	-0.2%	1%	.	2%
60	O=C(N/N=C1\CCCCc2ccccc21)c1ccccn1	-2.0%	-62%	-9	8%
61	CCc1nnc(NC(=O)c2cccc(S(=O)(=O)N3CCCC3)c2)s1	-1.7%	-3%	.	0%
62	CC1CCN(Cc2nnnn2-c2ccc(Cl)cc2)CC1	0.3%	-7%	-2	0%
63	COc1ccc(NC(=O)Nc2ccccc2F)c([N+](=O)[O-])c1	-1.9%	-46%	6	-11%
64	O=C(c1ccc(Br)o1)N1CCN(c2ccc(F)cc2)CC1	-0.8%	-4%	-4	-6%
65	COc1cc(OC)c(OC)cc1CN(C)CCc1ccccn1	0.5%	-3%	-3	9%
66	CCN(C(=O)c1ccco1)C1C2CC3CC(C2)CC1C3 (stereo not drawn)	6.3%	1%	.	-5%
67	CC(=O)c1ccc(Sc2ccccc2)cc1	0.5%	-13%	-8	12%
68	O=C(NCc1ccccc1F)c1ccc2c(c1)OCO2	2.9%	-25%	6	1%
69	O=C(CSc1nnnn1C1CCCCC1)Nc1cccc(NC(=O)c2ccco2)c1	-1.5%	-6%	4	-1%
70	CC(C)Nc1nnc(SCC(=O)c2c[nH]c3ccccc23)s1	0.2%	-16%	3	2%
71	COc1ccc(N2CCN(c3nc4c(c(=O)n(C)c(=O)n4C)n3CCCc3ccccc3)CC2)cc1	4.0%	2%	12	9%
72	Cc1noc(C)c1COC(=O)CN(C)S(=O)(=O)c1ccc(Cl)cc1	-2.3%	0%	1	-6%
73	O=C(c1ccc(Cl)c(S(=O)(=O)N2CCOCC2)c1)N1CCCCCC1	5.4%	-9%	.	7%
74	CC1S/C(=N/N=C/c2ccco2)N(Cc2ccc(F)cc2)C1=O (stereo not drawn)	-0.6%	-19%	-1	-27%
75	CC(C)(C)c1ccc(-c2noc(-c3ccno3)n2)cc1	0.0%	-71%	-4	10%

Screening results: PubChem, National Center for Advancing Translational Sciences (NCATS)

An excerpt; count on the stated rates, not on these rows.
